miR-21 reporter = miR-21 reporter, rising signal; Potency, µM (series often up to 38.3 µM), for the others: at the top dose reporter change, positive = more light; 340,000 tested, under 10 active; HeLa miR-21 FLuc reporter, luciferase, 48 h; AID 2288; active = well fitted rising curve with a large enough effect; inconclusive = small, poorly fitted or top-dose-only effect; inactive = no such curve, though single readings can be large or run the other way;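 further: % of control where 0% means no effect; miR-21 action dims this reporter so a rising signal means less miR-21 action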
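Compounds were titrated across several concentrations (up to approximately 40 uM) and incubated 48 hours with HeLa miR-21-FLuc reporter cells (miR-21 target sequence downstream of FLuc, endogenous miR-21). Readout was firefly luciferase luminescence after lytic detection reagent.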
Rango release inh = prevents RanGTP from dissociating the Rango-importin beta complex; Biochemical FRET Rango-importin beta, RanGTP-induced dissociation; hit rate 0.071% among 340,000; O95149+P62826; Potency, µM (titrated, usually from 46.1 µM), for the others: at the top dose activity change, negative = inhibition; AID 540253; active means falling FRET ratio curve, often poorly fitted, with flat reads before Ran was added; inconclusive means other falling curves, or compound fluorescence or quenching; inactive means flat or rising ratio curve;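 further: potency means the concentration at half of the fitted maximal effect; % of control where 0% means no effect; nearly all actives have a fitted effect of over 45% in size; -100% = wells without RanGTP and RCC1; the record marks most hits as doubtful in a second field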
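Compounds preincubate 5 min with complex of recombinant Rango and importin beta in PBS with 1 mM DTT. Ran (0.6 uM) loaded with 2 mM GTP plus 0.2 uM RCC1 starts dissociation; FRET is recorded 45 min later.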
Rango complex inh = prevents formation of the Rango-importin beta complex; Q14974; Rango CFP/YFP FRET sensor + importin beta, 45 min; Potency, µM (top dose mostly 92.2 µM), without a hit: at the top dose inhibition of complex formation; hit rate 0.031% among 340,000; AID 540263; active = rising FRET ratio curve, often small or poorly fitted; inconclusive = mostly compound fluorescence or quenching in the first reads; inactive = flat curves in all reads;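 further: potency means the concentration at half of the fitted maximal effect; 0% = DMSO wells and 100% = buffer wells lacking importin beta; nearly all actives have a fitted effect of over 15% in size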
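FRET biosensor (snurportin 1 IBB flanked by EYFP and cerulean), 50 nM, with compound 5 min, then 0.125 microM importin beta in PBS, 1 mM DTT, 0.02% Tween-20, 0.1% BSA. CFP/YFP ratio read after 45 min at room temperature; pre-read flags interference.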
GLA inh pH 4.5 = alpha-galactosidase A (human) inhibition, pH 4.5; 230,000 tested, under 10 active; purified enzyme, 4-MU-alpha-Gal fluorescence, pH 4.5; P06280; activity change, negative = inhibition, % at 105 µM; inconclusive = small, poorly fitted or top-dose-only inhibition, or a rising curve; inactive = flat fitted curve, though single readings scatter; no compound was filed as active;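 further: 0% = full activity with enzyme and -100% = basal without enzyme; dose as in the result columns while the protocol names 77 µM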
Target sequence (P06280 whole entry, looked up): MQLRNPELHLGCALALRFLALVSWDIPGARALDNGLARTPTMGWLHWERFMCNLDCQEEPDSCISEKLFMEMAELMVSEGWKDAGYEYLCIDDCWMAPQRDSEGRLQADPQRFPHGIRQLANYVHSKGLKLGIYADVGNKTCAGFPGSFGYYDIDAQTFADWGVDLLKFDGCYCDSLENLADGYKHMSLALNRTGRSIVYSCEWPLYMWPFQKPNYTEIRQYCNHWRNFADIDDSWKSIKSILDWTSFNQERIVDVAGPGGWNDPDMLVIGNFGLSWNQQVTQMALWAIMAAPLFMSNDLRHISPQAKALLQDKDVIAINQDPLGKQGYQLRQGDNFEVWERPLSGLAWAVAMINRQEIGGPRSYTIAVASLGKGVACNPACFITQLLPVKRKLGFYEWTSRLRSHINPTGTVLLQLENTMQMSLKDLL
An asterisk follows results filed as active; ? = inconclusive; · = not tested or not shown; & = joins results of further samples.

SMILES	miR-21 reporter	Rango release inh	Rango complex inh	GLA inh pH 4.5
Cc1ccc(OCn2c(=O)sc3ccccc32)cc1	-47.1%	6.5%	2.6%	-3.7
Cc1ccc(NC(=O)CC(NC(=O)c2ccccc2Cl)c2ccccc2)nc1 (stereo not drawn)	·	-19.0%	-0.5%	·
COc1ccc(OCc2cc(C(=O)N3CCN(CC4CC4)CC3)no2)c(Cl)c1	-46.5%	-6.0%	-4.2%	·
CCSC1=N/C(=C\c2ccc(-c3ccccc3[N+](=O)[O-])o2)C(=O)S1	-8.6%	-12.3%	3.4%	-12.8
COCCC(=O)N1CCC(Oc2ccc(C(=O)NCCC3=CCCCC3)cc2)CC1	-3.0%	4.0%	-0.9%	·
O=c1[nH]n(-c2ccccc2Cl)c(=O)c2ccccc12	-1.7%	-13.4%	0.7%	·
Cc1c(NC(=O)OC(C)C)sc(=S)n1C	-10.2%	18.0%	-5.3%	0.7
COc1ccc(C(=O)N2CCN(c3ccccc3)CC2)cc1S(=O)(=O)N1CCOCC1	-2.2%	-9.3%	-2.4%	·
CC(C)N(C(=O)Cn1c(-c2ccccc2Cl)nc2ccccc21)c1ccccc1	-14.6%	4.5%	3.3%	-6.9
O=C(NNC(=O)c1c(O)c2ccccc2[nH]c1=O)c1ccccc1	6.3%	1.0%	0.6%	·
CC(Oc1ccc(Cl)cc1)C(=O)N(C)CC(=O)Nc1ccc(N2CCOCC2)cc1 (stereo not drawn)	4.2%	0.8%	-1.8%	·
CC1CN(C(=O)c2cc3c(=O)n4ccccc4nc3n2C)CC(C)O1 (stereo not drawn)	-7.6%	-23.6%	?	·
CCC(C)c1ccc(NC(=S)NCc2ccccn2)cc1 (stereo not drawn)	-32.6%	-7.6%	0.4%	2.6
Cn1nc(C(C)(C)C)c(NC(=O)c2ccc(F)cc2)c1C(C)(C)C	-5.8%	-21.4%	2.4%	-19.2
CC(=O)Cn1ncc(N2CCCCC2)c(Cl)c1=O	-37.8%	-7.4%	3.3%	2.1
COc1cc(/C=N/N=C2/NC(=O)C(Cc3ccccc3)S2)ccc1O (stereo not drawn)	-56.5%	2.8%	-0.1%	-1.2
C=CCn1c(SC(CCO)C(=O)NCc2ccco2)nc2sc3c(c2c1=O)CCC3 (stereo not drawn)	-7.2%	-0.6%	-0.7%	-0.8
Cc1ccc(NC(=O)N(C)c2ccccc2)cc1	-32.8%	0.0%	-0.2%	·
COc1cccc(CC(=O)OCC(=O)NC(=O)c2ccc(OC(F)F)cc2)c1	·	8.9%	4.4%	·
Cc1cc(C)c(OCC(=O)Nc2ccccn2)c([N+](=O)[O-])c1	-32.6%	23.9%	-8.5%	0.0
CCOC(=O)c1c(NC(N)=O)nc2n1CCC2	0.2%	-3.5%	-0.4%	1.4
CC(=O)c1ccc(OCCNS(=O)(=O)c2ccc(-n3cnnn3)c(C)c2)cc1	12.3%	-0.9%	0.9%	·
COc1ccc(S(=O)(=O)N(CC(=O)NN=C2CCN(C)CC2)c2ccc(C)cc2)cc1OC	-2.5%	-19.4%	1.9%	·
Nc1ccc2nc(-c3ccc(N)c(Cl)c3)[nH]c2c1	-17.0%	-21.9%	?	0.3
Cc1cccc(NC(=O)c2ccc(NCC3CCCO3)c([N+](=O)[O-])c2)n1 (stereo not drawn)	-28.8%	17.6%	?	-8.4

Reprinted at random: four compounds from above, in no set order.
SMILES	miR-21 reporter	Rango release inh	Rango complex inh	GLA inh pH 4.5
CC(=O)c1ccc(OCCNS(=O)(=O)c2ccc(-n3cnnn3)c(C)c2)cc1	12.3%	-0.9%	0.9%	·
CC(C)N(C(=O)Cn1c(-c2ccccc2Cl)nc2ccccc21)c1ccccc1	-14.6%	4.5%	3.3%	-6.9
COc1cc(/C=N/N=C2/NC(=O)C(Cc3ccccc3)S2)ccc1O (stereo not drawn)	-56.5%	2.8%	-0.1%	-1.2
COc1cccc(CC(=O)OCC(=O)NC(=O)c2ccc(OC(F)F)cc2)c1	·	8.9%	4.4%	·

An excerpt of these results, with two lines to a compound.
Each structure is followed by: miR-21 reporter	Rango release inh	Rango complex inh	GLA inh pH 4.5
COc1ccc(OCc2cc(C(=O)N3CCN(CC4CC4)CC3)no2)c(Cl)c1
 : -46.5%	-6.0%	-4.2%	·
CCSC1=N/C(=C\c2ccc(-c3ccccc3[N+](=O)[O-])o2)C(=O)S1
 : -8.6%	-12.3%	3.4%	-12.8
COCCC(=O)N1CCC(Oc2ccc(C(=O)NCCC3=CCCCC3)cc2)CC1
 : -3.0%	4.0%	-0.9%	·

The list continues.
SMILES	miR-21 reporter	Rango release inh	Rango complex inh	GLA inh pH 4.5
CC(/C=N/NC(=O)c1nnn(-c2nonc2N)c1C(C)C)=C\c1ccco1	-9.7%	-5.3%	1.6%	·
CC(NC(=O)CSc1nnc(-c2cccnc2)n1N)c1ccccc1 (stereo not drawn)	-4.1%	-9.3%	0.3%	-0.6
CC(/C=N/N1CCN(c2ccccc2)CC1)=C\c1ccccc1	-6.4%	4.2%	-0.7%	9.1
CC1=CC(=Nc2c(C)n(C)n(-c3ccccc3)c2=O)C=C(C)C1=O	-1.8%	9.8%	2.7%	-1.3
FC(F)(F)c1cc(CCN2CCNC[C@H]2Cc2cccc3ccccc23)cc(C(F)(F)F)c1	·	43.4%	-3.3%	·
Cc1nn(CCCC(=O)Nc2cc(Oc3ccccc3)cc([N+](=O)[O-])c2)c(C)c1[N+](=O)[O-]	13.3%	6.8%	5.8%	-7.7
CCC1CCC(NC2CCCCNC2=O)CC1 (stereo not drawn)	-2.3%	-7.0%	0.1%	-7.0
Cc1ccc(CNC(=O)c2ccc(CN3CCOCC3)cc2)cc1	-7.3%	-2.1%	4.9%	6.3
CC[C@H]1c2[nH]c3ccccc3c2C[C@@H]2C(=O)N(c3ccc(F)cc3)C(=O)N21	·	-5.4%	?	·
COc1cc(/C=N/Nc2ccc3ccccc3c2)ccc1OC(=O)c1ccco1	-48.9%	-4.1%	-0.5%	-5.9
CCN(CC(=O)Nc1ccccc1C(F)(F)F)C(=O)CN1C(=O)NC2(CCCC2)C1=O	·	24.2%	4.7%	·
Cc1ccc(N2NC(C)(c3cccs3)NC2=S)cc1 (stereo not drawn)	-28.7%	27.4%	-3.5%	-7.9
CCCCCc1c(O)c2ccccc2[nH]c1=O	-7.0%	-15.5%	-0.7%	2.2
Cc1ccc(O)c(C(=O)/C=C/c2ccc3c(c2)OCCCO3)c1	-46.7%	-5.3%	2.3%	1.8
CCCn1c(SCC(=O)NCCc2ccc(Cl)cc2Cl)n[nH]c1=O	-5.9%	-16.0%	-1.0%	4.1
COc1ccc(CCN2CC34C=CC(O3)C(C(=O)NCc3ccccc3)C4C2=O)cc1OC (stereo not drawn)	-8.4%	0.9%	-2.0%	-0.7
CN(C)S(=O)(=O)c1ccc(Cl)c(NC(=O)CN2C(=O)NC3(CCCC3)C2=O)c1	-1.0%	-0.9%	-0.9%	·
CN(C)CC[C@@H](c1ccc(Br)cc1)c1ccccn1	·	-10.9%	-0.2%	1.0
Cc1ccc(C2=NCN(c3ccc(C(=O)O)cc3)C(=S)N2)cc1	-57.2%	·	·	0.2
Cc1ccc2nc(NC(=O)CSc3nc(=O)n(CCN(C)C)c4c3CCCC4)sc2c1	·	-13.3%	-0.7%	·
OCC(O)[C@@H](O[C@H]1O[C@H](CO)[C@@H](O)[C@H](O)[C@H]1O)[C@H](O)[C@@H](O)CO (stereo partly drawn)	·	-0.6%	2.4%	·
COc1ccc(C2c3[nH]c4ccccc4c3C[C@H]3C(=O)N(c4ccccc4C(=O)N4CCC[C@@H]4C(=O)O)C(=O)N23)cc1 (stereo partly drawn)	·	-26.9%	?	·
Cc1ccc2cccc(OCCOCCOc3ccccc3Br)c2n1	-5.6%	34.6%	5.2%	2.1
Cc1cc(C(=O)N/N=C/c2ccc3c(c2)OCO3)c(C)o1	-57.1%	0.6%	-2.0%	-4.2
COc1ccc(C(=O)/C=C/c2cccnc2)c(OC)c1	?	-5.2%	-1.8%	·

(further entries)
SMILES	miR-21 reporter	Rango release inh	Rango complex inh	GLA inh pH 4.5
CN(CC(=O)Nc1cccc(F)c1)CC(=O)NC(c1ccccc1)c1ccccc1	·	1.5%	-2.4%	·
Nc1ncc(C(=O)O)c(-c2ccccc2)n1	·	0.0%	-1.9%	·
CC(C)N(Cc1ccccc1)C(=S)Nc1ccc(OC(F)F)cc1	-0.1%	?	10.9%	-8.9
CCOc1ccc(C(=O)N(CC(=O)Nc2cccc(C)c2C)CC2CCCO2)cc1OC (stereo not drawn)	·	-9.9%	-2.9%	·
C=CCOC(=O)C1=C[C@H](C2CCCCC2)[C@@H](CCCO)[C@H](OCC)O1	4.8%	0.2%	3.6%	-14.8
O=C(CN1C(=O)c2ccccc2C1=O)NC1CCCCCC1	-1.6%	11.1%	1.9%	·
Cc1cc(F)ccc1S(=O)(=O)Nc1ccccc1C(=O)NC1CCN(Cc2ccccc2)CC1	·	-3.1%	0.2%	·
COc1ccc(S(=O)(=O)N2CCCC2CNC(=O)C(=O)Nc2ccc(F)cc2)cc1 (stereo not drawn)	·	-4.6%	-2.5%	·
COC(C(=O)Nc1ccnn1C1CCN(Cc2nccs2)CC1)c1ccccc1 (stereo not drawn)	-2.9%	3.0%	0.0%	·
Cc1cc(C)c2c(c1)cc(C)c1nnc(SCC(=O)N3CCCc4ccccc43)n12	-1.3%	-10.0%	-0.5%	-0.1
Cc1cc(N)n(-c2ccc(C)c(C)c2)n1	-34.0%	15.1%	-2.2%	-16.1
CC(=O)c1ccc(S(=O)(=O)N2CCC(Oc3ccc(-n4cnnn4)cc3)CC2)cc1	-1.6%&7.5%	4.0%	-5.4%	·
CCc1nccn1CCC(=O)N1CCc2c([nH]c3ccccc23)C1CC(C)C (stereo not drawn)	2.3%	-10.8%	?	-3.8
Cc1ccc(C(=O)Nc2ccc(S(=O)(=O)Nc3cnc4ccccc4n3)cc2)cc1	-46.6%	-1.7%	0.5%	·
Cc1cccc(C)c1NC(=O)CN(C)C(=O)c1ccccc1C(=O)N(C)Cc1ccccc1	1.5%	-14.1%	5.1%	·
Cc1c(N2C(=O)c3ccccc3C2(O)c2ccccc2)c(=O)n(-c2ccccc2)n1C (stereo not drawn)	0.9%	18.1%	-7.1%	-2.0

Entries of single compounds from above.
CC(=O)c1ccc(S(=O)(=O)N2CCC(Oc3ccc(-n4cnnn4)cc3)CC2)cc1 as listed: miR-21 reporter: -1.6%&7.5%; Rango release inh: 4.0%; Rango complex inh: -5.4%; GLA inh pH 4.5: ·
CC(C)N(Cc1ccccc1)C(=S)Nc1ccc(OC(F)F)cc1 as listed: miR-21 reporter: -0.1%; Rango release inh: ?; Rango complex inh: 10.9%; GLA inh pH 4.5: -8.9

A portion of the library, so the mix of outcomes need not match the whole.
